# Compound activity deposited in PubChem BioAssay by PCMD.
# Calb biofilm kill – mixture kills Candida albicans biofilm cells; inhibition, % at 7.6 µM; AID 1242; C. albicans biofilm persisters + clotrimazole, fluorescence viability; primary screen in compound mixtures of four per well; 0.02% of 120,000 active;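 active means inhibition above 30.3% in the primary screen of four-compound pools, then above 30% when the compound was retested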;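 further: compounds exposed to preformed 24 h biofilms for 48 h; the number belongs to the whole pool; some results filed as inactive read as strong as hits; inactives centre near 12; 0% = biofilm with clotrimazole alone and 100% = kill control; retested singly at about 60 µM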
#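 Test system: C. albicans biofilms. Buffer or medium: RPMI/MOPS medium, pH 7.0. Timing: 48 h compound exposure at 37 °C. Technique: Alamar Blue fluorescence. Evaluation: percent inhibition of biofilm viability.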
# The depositor's hits bear a star. Not all compounds are listed, so the mix of outcomes need not match the whole.
Compound | Calb biofilm kill
O=C(O)c1cccnc1Sc1ncnc2sc3c(c12)CCC3 | 14
COc1ccc(NC(=O)Cn2c(=O)oc3ccccc32)cc1 | 19
Cc1nn(-c2ccccc2)c(=O)c2noc(C)c12 | 20
O=C(CNC1CCCCC1)Nc1ccc([N+](=O)[O-])cc1C(=O)Nc1ccccc1F | 3
CCn1cc(CN2N=C(C)CC2c2ccccc2)c(C)n1 (stereo not drawn) | 5
CCOC(=O)c1nnn(-c2nonc2N)c1-c1ccc(Br)cc1 | 7
CCCCc1nc2ccccc2n1CC(=O)NN | 16
NC(=O)[C@@H]1CCOc2c(F)cc([N+](=O)[O-])cc2C(=O)N[C@@H](CO)C(=O)NCC(=O)N1 | 8
Cn1c(CNC(=O)c2ccccc2F)nnc1SCc1ccc(Cl)cc1 | 5
COc1cccc(C2Oc3ccccc3C3CC(c4cccs4)=NN32)c1 (stereo not drawn) | 9
Cc1oc(-c2ccc(Cl)cc2)cc1C(=O)O | 5
Cc1ccc(/C=C2/C(=O)ON=C2c2ccccc2)o1 | 17
Nc1c(C(=O)NCCc2ccc(Cl)cc2)sc2ccc(S(=O)(=O)N3CCCCC3)cc12 | 17
O=P(OCC1CC1)(c1ccccc1)c1ccccc1 | 8
O=C(c1ccc(C(F)(F)F)cc1)N1CCC(=O)N(C(COCc2ccccc2)Cc2ccccc2)CC1 (stereo not drawn) | 13
Cc1ccc(CNn2cnnc2SCc2ccc(F)cc2)cc1 | 12
O=C(NCC1(N2CCCCC2)CCCCC1)c1ccc(S(=O)(=O)N2CCCC2)cc1 | 16
CCc1ccc(NC(=O)CSc2nc3ccccc3c(=O)n2CCCN2CCC(C)CC2)cc1 | 11
Cc1cc(=O)[nH]c(N/N=C2/CCCC/C2=C\c2ccccc2)n1 | 6
CCCCc1ccc(NC(=O)N[C@@H](C)C(=O)O)cc1 | 24
CCOc1ccccc1N1CN(C2CCCCC2)CNC1=S | 16
NC(=O)c1ccccc1NC(=O)COc1ccc(Cl)cc1 | 16
COCCNC(=O)CSc1nc(N)c(NC(=O)c2ccccc2F)c(=O)[nH]1 | 21
COc1ccc(OC)c(-n2c(C)cc(C=O)c2C)c1 | 3
O=C(COC(=O)/C=C/C(=O)OCC(=O)NC12CC3CC(CC(C3)C1)C2)NC12CC3CC(CC(C3)C1)C2 | 19
CCCCCC(=O)Nc1ccc(-c2csc(N)n2)cc1 | 12
CC1=NN(CCC#N)C(=O)/C1=C/c1ccc(N(C)C)cc1 | 5
Cc1c(-n2c(SCC(N)=O)nc3ccccc3c2=O)c(=O)n(-c2ccccc2)n1C | 12
O=C1c2ccc([N+](=O)[O-])cc2NC(c2ccco2)N1/N=C/c1ccco1 (stereo not drawn) | 15
COc1ccc(/C=C(/C#N)C(=O)Nc2cccc([N+](=O)[O-])c2)cc1C(=O)O | -4
COc1ccc(-c2c3c(=O)n(C)c(=O)n(C)c3cn2-c2ccccc2O)cc1 | 24
O=C(Cc1c[nH]c2ccccc12)NCc1ccc(Cl)cc1Cl | 15
COc1ccccc1C(=O)C1CCCN(Cc2ccc3c(c2)OCCO3)C1 (stereo not drawn) | 25
O=C(c1cc(N2C(=O)C3C4CCC(C4)C3C2=O)ccc1Cl)N1CCN(c2ccc(F)cc2)CC1 (stereo not drawn) | 13
O=C(NC1CCCCC1)c1ccc(S(=O)(=O)c2ccccc2)cc1 | 26
COCCNC(=O)Cn1cc(C(=O)c2ccco2)c2ccccc21 | 16
NC(=S)NNc1ccnc2cc(Cl)ccc12 | 14
CN(C(=O)CSc1nc(N)c2c3c(sc2n1)CSC(C)(C)C3)c1ccccc1 | 11
Cc1ccc(C)c(Cn2c(O)c(N=NC(=S)Nc3ccccc3F)c3ccccc32)c1 | 21
COc1ccc(N=C2NC(=O)C(CC(=O)NCCc3ccc(OC)c(OC)c3)S2)cc1 (stereo not drawn) | 4
CCOC(=O)Cc1nc2nc(C)cc(C)n2n1 | 5
CC1CCCCN1C(=O)c1cc2nc(-c3ccccc3)cc(-c3ccccc3)n2n1 (stereo not drawn) | 11
COc1cc(-c2cc(C(=O)Nc3ccccc3N3CCOCC3)c3ccccc3n2)cc(OC)c1OC | 5
COC(=O)c1ccccc1NC(=O)NC1CC1 | -2
CN(C)C=NC(=O)c1cccn1-c1ncc(C(F)(F)F)cc1Cl | 31
CCOC(=O)c1c(NC(=O)C2C3C=CC(C3)C2C(=O)O)sc2c1CCCC2 (stereo not drawn) | 19
O=c1[nH]c(CSc2ccccn2)nc2ccccc12 | 20
FC(F)(F)c1nc(-c2ccccc2)ncc1-c1nnnn1-c1ccccc1 | 9
O=C1CC(C(=O)Nc2ccc(Cl)cc2[N+](=O)[O-])C2(CCCCC2)O1 (stereo not drawn) | 13
Cc1ccc(NC(=S)N2CCC(c3ccc(C)cc3)C2)cc1 (stereo not drawn) | 11
COC(=O)[C@@H]1CCCN1Cc1c(C(=O)N2CCOCC2)nc2c(C)cccn12 | 5
COC(=O)c1ccc(-n2c(C)cc(/C=N/Nc3nc(C)cc(=O)[nH]3)c2C)cc1 | 11
COc1ccc(/C=C\C(=O)NCc2ccc3c(c2)cc(C)n3C)cc1OC | -3
COC(=O)c1ccc(C)c(NC(=O)c2ccc(Cn3cc([N+](=O)[O-])cn3)o2)c1 | 14
CC(=O)Nc1ccc(NC(=O)COc2ccc([N+](=O)[O-])cc2)cc1 | -2
Cc1ccc(NC(=S)NCCc2ccccc2)nc1 | 3
COc1ccc(OC)c(NC(=O)CC(NC(C)=O)c2ccccc2)c1 (stereo not drawn) | 19
O=C(NCc1ccncc1)C(=O)Nc1nc(C23CC4CC(CC(C4)C2)C3)cs1 | 14
Cc1c(NC(=O)CSc2ncn[nH]2)c(=O)n(-c2ccccc2)n1C | -9
Cc1ccccc1NC(=O)c1sc(Cl)nc1C | 11

# (list continues)
Compound | Calb biofilm kill
COCCNC(=O)CN(C)S(=O)(=O)c1ccc(Br)cc1 | 11
CCn1cc(C(=O)NC(=S)Nc2sc3c(c2C(=O)OC)CCCCCC3)cn1 | 12
Cc1ccc(OCC(=O)OCC(=O)Nc2sccc2C(N)=O)cc1C | 14
CNC(=O)CSc1nc(-c2ccccc2)c(-c2ccccc2)o1 | -4
CSc1cccc(CN2CCC(CO)(Cc3cccc(C(F)(F)F)c3)CC2)c1 | 18
O=C(NN1CCOCC1)c1cc(-c2ccc(Br)cc2)nc2ccccc12 | 8
COCC1CCN(Cc2cn[nH]c2-c2ccc(OC)c(F)c2)C1 (stereo not drawn) | 21
CCC(=O)Nc1ccc(Br)cn1 | 16
CCOc1ccc2c(c1)nc(C)n2C | 18
OC1(c2cccc(C(F)(F)F)c2)CCN(Cc2nnnn2Cc2ccccc2)CC1 | 3
COCC1=C(C(=O)OC)C(c2ccco2)n2ncnc2N1 (stereo not drawn) | 9
CCSCc1nnc(SCC(=O)Nc2nc(C)cs2)n1C | 10
Cc1ccc(C(=O)NCCCNc2ccccc2[N+](=O)[O-])cc1 | 18
Nc1nnn(CC(=O)N/N=C/C=C/c2ccccc2)n1 | 23
O=C(c1cc(=O)[nH]c2ccccc12)N1CCN(c2cccc(C(F)(F)F)c2)CC1 | 12
Cc1cc(Cl)ccc1NC(=O)C1CCCN1C(=O)c1cccs1 (stereo not drawn) | 18
O=C1CCC/C(=N\NC(=O)c2ccc(NS(=O)(=O)c3ccc(Br)cc3)cc2)C1 | 6
Cc1ccc(C(=O)NC(=S)NCCCN2CCOCC2)cc1 | 12
O=c1c2cc(NC(=S)N3CCCCCC3)ccc2nc2n1CCCCC2 | 5
COc1ccccc1NC(=S)N1CCN(c2ccccn2)CC1 | 7

# An excerpt of these results, as labelled records:
COCCNC(=O)CN(C)S(=O)(=O)c1ccc(Br)cc1
  Calb biofilm kill = 11
CCn1cc(C(=O)NC(=S)Nc2sc3c(c2C(=O)OC)CCCCCC3)cn1
  Calb biofilm kill = 12
Cc1ccc(OCC(=O)OCC(=O)Nc2sccc2C(N)=O)cc1C
  Calb biofilm kill = 14
CNC(=O)CSc1nc(-c2ccccc2)c(-c2ccccc2)o1
  Calb biofilm kill = -4

# Next structures follow.
Compound | Calb biofilm kill
O=c1c2ccc(Cl)cc2[nH]c(=S)n1CCC1=CCCCC1 | 21
CSc1ccc(/C=C(\C#N)C(=O)NC2CCCCC2)cc1 | 9
CN=C(C)/C(C(=O)OC)=C(/O)c1ccccc1F | 14
CN(C)c1ccc(C(=O)Nc2nnc(C3=COCCO3)o2)cc1 | 20
N#C/C(=C\c1ccc(-c2ccc(S(=O)(=O)N3CCOCC3)cc2)o1)C(=O)NC1CC1 | 20
N/C(=N\OC(=O)c1ccc(Cl)cc1Cl)c1ccccn1 | 27
CC(=O)NCCN1C(=O)S/C(=C\c2cccs2)C1=O | 0
COc1ccccc1NC(=O)NCc1nc(-c2ccc(C(F)(F)F)cc2)no1 | 16
C=CCn1c(=O)c2ccc(C(=O)NCc3ccccc3)cc2n(Cc2ccc(Cl)cc2)c1=O | 16
CNc1ccc(Br)cc(C(=O)/C=C/c2ccc(OC)cc2)c1=O | 8
CCOC(=O)c1ccccc1N/C=C/C(=O)c1cccs1 | 12
Cc1ccsc1/C=N/NC(=O)CC(=O)NCC(C)C | 6
O=C(Cn1ncc(Cl)c(Cl)c1=O)N1CCc2ccccc21 | 9
CCc1ccccc1NC(=O)CCc1nc(-c2cccs2)no1 | 20
O=C(COC(=O)c1ccc2ccccc2n1)c1ccc(F)cc1 | 9
CCOc1ccccc1CN1CCN(CC2=Cc3cc(OC)ccc3OC2)CC1CCO (stereo not drawn) | 24
Cc1cccc(N2CCN(Cc3nc(CC4CC4)no3)CC2)n1 | 15
O=C(Nc1cccc(S(=O)(=O)NCc2ccco2)c1)c1cc(-c2ccccc2)nc2ccccc12 | 4
CCc1ccc(C2=C/C(=C/c3cccnc3)C(=O)O2)cc1 | 12
Cc1ccc(-n2c(SCc3ccc(C(=O)O)cc3)nnc2-c2ccncc2)cc1 | 14
N#CNc1nc(O)cc(=O)[nH]1 | 16
CCOC(=O)C1CCN(C(=S)Nc2ccc(Cl)cc2C)CC1 | 14
CC1=NN(c2ccc(S(=O)(=O)O)cc2Cl)C(=O)C1 | 19
Cc1cc(OCCCC(=O)NCCN2C(=O)S/C(=C\c3cccnc3)C2=O)ccc1Cl | 15
C/C(=C\c1ccccc1)C(=O)c1c(C)cc(C)[nH]c1=O | 18
COC(=O)c1c(C)[nH]c(C(=O)/C=C/c2ccc(Cl)cc2)c1C | 11
CCCC(=O)Nc1ccc(Cl)c(NC(=S)NC(=O)c2cc3ccccc3o2)c1 | 20
COc1cc(CCC(=O)NNC(=O)c2ccc(C)cc2)cc(OC)c1OC | 5
Cc1ccc(-n2c(-c3cnccn3)n[nH]c2=S)cc1 | 12
CCCCCNC(=O)C1CCC(Cn2c(=S)[nH]c3ccccc3c2=O)CC1 (stereo not drawn) | 8
COc1cc([N+](=O)[O-])cc(/C=N/NC(=O)C(C)Nc2ccccc2C)c1O (stereo not drawn) | 14
CCOc1ccc2nc(N3C(=O)/C(=C/c4ccccc4)NC3=S)sc2c1 | -4
CN1c2ccccc2N(C)C1(C)c1ccccc1 | 10
COc1ccc(C2/C(=C(/O)c3ccc(C)cc3)C(=O)C(=O)N2c2ccccn2)cc1OC (stereo not drawn) | 31
CC(C)(C)c1ccc(C(=O)N/N=C/c2ccc(OCCCF)cc2)cc1 | 2
C=CCNC(=O)COC(=O)c1cccnc1Nc1ccccc1F | -1
O=C(O)C1=C[C@H](C2CC2)C[C@H](OCCCCO)O1 | 14
O=c1c2cc(NC(=S)NC3CCCC3)ccc2nc2n1CCCCC2 | 8
COCCn1c(=NC(=O)c2ccc(S(=O)(=O)N3CCCc4ccccc43)cc2)sc2cc(S(C)(=O)=O)ccc21 | 14
O=c1c2c(-c3ccccc3)csc2ncn1/N=C/c1cccc([N+](=O)[O-])c1O | 8
CCCCNC(=O)N1CCN(c2ncccn2)CC1 | -13
c1nnc(-c2ccc3c(c2)OCO3)o1 | 20
COc1ccc(/C=C2/N=C(SCC(=O)Nc3cc(C)on3)N(c3ccccc3)C2=O)cc1 | 15
Cc1c(NC(=O)C(C)OC(=O)c2ccc(Cl)nc2)c(=O)n(-c2ccccc2)n1C (stereo not drawn) | 8
CCOC(=O)/C(=N\Nc1ccccc1[N+](=O)[O-])c1csc(Nc2ccccc2)n1 | 8
O=C1NC(N2CCOCC2)=N/C1=C/c1ccc2c(c1)OCO2 | 19
CCCCN(C)CCNC(=O)CSCc1ccc(C)cc1 | 19
O=C(O)CCC(=O)Nc1nc2ccc([N+](=O)[O-])cc2s1 | 18
S=c1[nH]nc(-c2ccc3c(c2)OCO3)n1-c1ccccc1 | 16
COc1ccccc1C(=O)Nn1c(-c2cccs2)nc2ccccc2c1=O | 14
Cc1cccc(OCC(=O)N2CCCc3ccccc32)c1 | 10
Cc1cc(C(=O)Nc2ccccc2C(=O)O)ccc1NC(=O)COc1cccc([N+](=O)[O-])c1 | 47

# Shown as labelled records: part of the list above
Cc1c(NC(=O)C(C)OC(=O)c2ccc(Cl)nc2)c(=O)n(-c2ccccc2)n1C (stereo not drawn)
  Calb biofilm kill: 8

CCOC(=O)/C(=N\Nc1ccccc1[N+](=O)[O-])c1csc(Nc2ccccc2)n1
  Calb biofilm kill: 8

O=C1NC(N2CCOCC2)=N/C1=C/c1ccc2c(c1)OCO2
  Calb biofilm kill: 19

CCCCN(C)CCNC(=O)CSCc1ccc(C)cc1
  Calb biofilm kill: 19
